Screening data deposited in PubChem BioAssay by National Center for Advancing Translational Sciences (NCATS).
AID923: qHTS Assay for Allosteric/Competitive Inhibitors of Caspase-1: Spectroscopic Profiling in AFC Spectral Region. compound fluorescence, AFC spectral region (405/520 nm); almost no hit is shown here. Potency, µM (titrated, usually from 57.5 µM), for the others: at the top dose fluorescence increase, hits mostly activators. 75,000 compounds, 1.1% hits. AID 923, 2007; active = well fitted activation curve with a large enough effect; inconclusive = small, poorly fitted or top-dose-only effect;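 also: potency is read from the fitted curve at half-maximal effect; 0% is about no effect; scaled to a free AFC standard on each plate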
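Baseline compound fluorescence (AFC region, 405 nm ex/520 nm em) taken from the intercept of kinetic reads with 50 nM caspase-1 and 5 uM Ac-WEHD-AFC; normalized to an on-plate AFC standard curve; compounds titrated up to 57 uM.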
A647 fluor: qHTS Assay for Spectroscopic Profiling in A647 Spectral Region; max dye-equivalent concentration, M; AID 592, 2007; 59,000 tested, under 10 active; Compound fluorescence, A647 channel (570/671 nm), Tris buffer; active means above 1 µM dye equivalent; inconclusive means 0.1 to 1 µM; inactive means 0.1 µM or less;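 also: values scaled relative to a standard on each plate; highest value over a series up to 38 µM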
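Fluorescence read (570 nm ex, 671 nm em) after 15 min RT incubation of compounds in 100 mM Tris buffer, pH 8.0; values expressed as dye-equivalent concentration against a six-point A647 standard series on each plate.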
Resorufin autofl: qHTS Assay for Spectroscopic Profiling in Resorufin Spectral Region; Compound fluorescence, resorufin region 547/598 nm, buffer; hits give high values; max dye-equivalent concentration, M; AID 588, 2007; 59,000 compounds, 0.04% hits; active = above 10 nM dye equivalent; inconclusive = 1 to 10 nM; inactive = 1 nM or less; a few of its hits are not listed in these tables; also: highest value over a series up to 38 µM
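Dye-equivalent concentration values derive from comparing each well's 547/598 nm fluorescence against resorufin standards included on every plate. Incubation was 15 min at room temperature in 100 mM Tris, pH 8.0.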
TSHR agonist: qHTS Assay for Agonists of the Thyroid Stimulating Hormone Receptor; HEK293-CNG-TSHR cells (CNG channel as cAMP sensor), membrane potential dye, cAMP; 73,000 compounds, 0.48% hits; Potency, µM (titrated, usually from 57.1 µM), for inactives: at the highest dose activation, most hits filed as activators; Thyrotropin receptor (Homo sapiens), P16473; active = well fitted activation curve of enough size with the parental cells flat; inconclusive = any curve in the parental cells; inactive = parental cells flat and receptor cells flat or falling; also: potency is read from the fitted curve at half-maximal effect; % of control where 0% means no effect; weak receptor curves with flat parental cells got no call and are not listed
Target sequence (P16473 whole entry, looked up): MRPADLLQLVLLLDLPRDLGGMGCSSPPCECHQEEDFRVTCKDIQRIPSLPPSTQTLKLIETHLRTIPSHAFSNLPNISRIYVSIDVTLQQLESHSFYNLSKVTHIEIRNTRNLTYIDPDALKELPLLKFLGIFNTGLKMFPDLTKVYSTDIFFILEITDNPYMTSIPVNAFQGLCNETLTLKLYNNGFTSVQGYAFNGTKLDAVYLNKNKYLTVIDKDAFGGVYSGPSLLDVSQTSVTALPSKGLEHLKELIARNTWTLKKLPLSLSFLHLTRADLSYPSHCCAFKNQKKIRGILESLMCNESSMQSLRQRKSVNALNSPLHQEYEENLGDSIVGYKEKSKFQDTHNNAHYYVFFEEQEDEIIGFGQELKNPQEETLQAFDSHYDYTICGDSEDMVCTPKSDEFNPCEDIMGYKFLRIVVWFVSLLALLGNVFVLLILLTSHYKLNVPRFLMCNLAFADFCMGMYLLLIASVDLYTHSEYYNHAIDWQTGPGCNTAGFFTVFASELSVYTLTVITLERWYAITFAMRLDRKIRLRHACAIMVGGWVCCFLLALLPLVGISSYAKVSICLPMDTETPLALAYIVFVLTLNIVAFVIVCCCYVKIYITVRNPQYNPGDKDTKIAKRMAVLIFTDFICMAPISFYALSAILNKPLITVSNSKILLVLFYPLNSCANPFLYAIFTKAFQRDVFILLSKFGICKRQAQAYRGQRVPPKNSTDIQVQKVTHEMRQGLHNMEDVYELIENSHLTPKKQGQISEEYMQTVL
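HEK 293 cells stably expressing TSHR and a modified CNG channel, with CNG-only parental cells as counterscreen, were preloaded 60 min at room temperature with membrane potential dye containing 100 uM RO 20-1724. Compound exposure was 30 min, and depolarization was read as fluorescence at 590 nm.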
A488 fluor: qHTS Assay for Spectroscopic Profiling in A488 Spectral Region; compound autofluorescence, A488 spectral region, dye equivalency; hits give high values; max dye equivalency, M; 59,000 compounds, 0.1% hits; AID 591, 2007; active = above 10 nM dye equivalent; inconclusive = 1 to 10 nM; inactive = 1 nM or less; about half of its hits are not listed in these tables;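 also: highest value over a series up to 38 µM; compound alone in buffer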
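Compounds pin-transferred into 100 mM Tris buffer, pH 8.0, incubated 15 min at room temperature, then imaged with 480 nm excitation/540 nm emission filters. Fluorescence converted to Alexa 488 dye-equivalent concentration via an on-plate six-point A488 standard curve.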
An asterisk follows results filed as active; i = inactive; ? = inconclusive; / = no result given; [ ] = dose if it differs, or a comment. This is a subset; rates above refer to the full screens.

The line under a structure holds: AID923, A488 fluor, A647 fluor, TSHR agonist, Resorufin autofl
CCOc1ccc(-n2c(SC(C)C)nc3c(c2=O)SCC3)cc1
  -0.4%, i, 1e-09, /, i
O=C(CSc1nc(Nc2ccccc2)nc(N2CCOCC2)n1)Nc1ccc2c(c1)OCCO2
  -1.9%, i, 1e-09, 25µM*, i
CCn1c(=O)n(CC)c2cc(S(=O)(=O)Nc3ccccc3C)c(C)cc21
  -3.0%, i, 2.3e-09, 28%, i
COc1ccc(C(=O)Oc2c(CN3CCOCC3)cc(Cl)c3cccnc23)cc1OC
  0.7%, /, /, -6%, /
O=C(CSc1ccc(-c2nc3ccccc3[nH]2)cn1)N1CCN(C(=O)c2ccco2)CC1
  -0.3%, i, 3.9e-09, 0%, i
Cc1noc(C)c1-c1nccc(N2CCN(C)CC2)n1
  0.3%, i, 1e-09, ?, i
CCOC(=O)CSc1nc2c(c(=O)n1-c1ccc(OC)cc1)SCC2
  -1.0%, /, /, 0%, /
Cc1ccc(-c2noc(COc3ccccc3C)n2)cc1
  -1.3%, /, /, ?, /
CCOc1ccccc1NS(=O)(=O)c1cccs1
  -1.8%, i, 2.8e-08, 23%, i
Cc1c(/C=N/n2cnnc2)c2ccccc2n1CCOc1ccccc1
  0.0%, /, /, ?, /
COc1ccc(-c2ccc(=O)n(Cc3cc(=O)n4ccccc4n3)n2)cc1
  2.6%, i, 3.5e-09, 14%, i
O=C(O)Cc1csc2ccccc12
  -1.2%, i, 1.1e-08, 6%, i
Cc1cc(C)n(C(=O)c2cc3sccc3[nH]2)n1
  -0.7%, i, 1e-09, /, i
CC(=O)Nc1ccc(S(=O)(=O)N2CCCc3ccccc32)cc1
  0.5%, i, 4.5e-08, 16%, i
CCN(CC)CCOC(=O)c1c(C)oc2ccc(OC)cc12
  0.2%, i, 5.7e-09, ?, i
COc1cc2cc3c(N)c(C(=O)NCc4ccco4)sc3nc2cc1OC
  3.1%, i, 5.2e-09, -2%, i
O=C(Cc1ccccc1)Nc1nonc1NC(=O)c1ccccc1
  2.0%, i, 1e-09, 10%[11.4 µM], i
Cc1ccc(C2C(C(=O)c3sc(C)nc3C)=C(O)C(=O)N2CCN(C)C)o1 (centres undefined)
  0.2%, i, 9.2e-09, -26%, i
Cn1c(=O)c2c(nc(CN3CCCCC3)n2Cc2c(F)cccc2Cl)n(C)c1=O
  1.0%, /, /, ?, /
CCS(=O)(=O)Nc1ccc(-c2nnc(SCC(=O)c3ccc(NC(C)=O)c(OC)c3)o2)cc1
  1.4%, i, 2.9e-08, -4%, i
CCn1c(SCC(=O)NCc2ccccc2)nc2ccccc2c1=O
  0.5%, i, 1e-09, -4%, i
O=C1CSC(c2cccnc2)N1C1CCCCC1 (centres undefined)
  0.2%, i, 1.4e-09, 18%, i
CCOC(=O)c1ccc(N2CN=C3SCC(=O)N3C2)cc1
  2.1%, /, /, 9%[11.4 µM], /
Cc1noc(/C=C/N(C)C)c1S(=O)(=O)N(C)CC(=O)N1CCc2ccccc21
  15%, i, 5.4e-09, 30%, i
CCOc1ccc(NC(=O)c2cc3n(n2)C(C(F)(F)F)CC(c2ccco2)N3)cc1 (centres undefined)
  -0.2%, i, 3.1e-08, -8%, i
COc1ccccc1-c1cc(C(=O)NC(C)C)no1
  -1.6%, i, 1e-09, 8%[11.4 µM], i
CCCc1nnc(NC(=O)c2cc(OC)cc(OC)c2)s1
  -3.0%, i, 1.5e-08, 4%, i
COc1ccc(C(=O)N2CCN(c3nc4ccccc4o3)CC2)cc1OC
  5.3%, /, /, ?, /
COc1ccc(-n2ncc3c(NCc4ccccn4)ncnc32)cc1
  0.9%, /, /, -3%, /
CC(C)(C)OC(=O)N1CCCC1C(=O)NCCc1ccccc1 (centres undefined)
  0.3%, i, 6.7e-09, 5%, i

Next part, starting with the last 2 of the part before.
The line under a structure holds: AID923, A488 fluor, A647 fluor, TSHR agonist, Resorufin autofl
COc1ccc(-n2ncc3c(NCc4ccccn4)ncnc32)cc1
  0.9%, /, /, -3%, /
CC(C)(C)OC(=O)N1CCCC1C(=O)NCCc1ccccc1 (centres undefined)
  0.3%, i, 6.7e-09, 5%, i
O=C(CN1C(=O)CCSc2ccccc21)Nc1ccc(F)cc1
  -1.0%, /, /, 7%, /
c1ccc([C@H](CCN2CCCC2)c2ccccn2)cc1
  1.3%[11.5 µM], i, 1e-09, -4%[11.4 µM], i
CCOC(=O)C1=C(CS(=O)(=O)c2ccccc2)NC(=O)NC1c1ccccc1 (centres undefined)
  -0.6%, i, 2e-08, -2%[11.4 µM], i
N#Cc1ccc(CN2CCCC3(CCNCC3)C2)cc1
  -1.6%, i, 8.3e-09, ?, i
Cc1cc(C(=O)O)c(S(C)(=O)=O)s1
  0.2%, i, 4.3e-08, -4%, i
CC(C)(C)c1ccc(OCC(=O)NCc2ccco2)cc1
  -1.0%, i, 5.7e-08, 24%, i
COc1ccc(CNc2ncncc2-c2ccccc2C(F)(F)F)c(OC)c1
  0.2%, i, 1.8e-08, ?, i
COc1ccc(-n2c(=O)cnc3cnc(Oc4cccc(Cl)c4)nc32)cc1
  1.4%, i, 1e-09, ?, i
N#C/C(=C(/O)CN1C(=O)c2ccccc2C1=O)c1nc2ccccc2[nH]1
  0.1%, /, /, -7%, /
CCC1(CC)C(=O)C(C)(C)C(=O)OC1c1cccs1 (centres undefined)
  -1.3%, i, 1e-09, 17%, i
CCn1c(SCC(=O)NCCOc2ccccc2)nc2ccccc2c1=O
  1.3%, /, /, ?, /
COc1ccc(CCNc2ncnc3nc[nH]c23)cc1OC
  4.3%, /, /, ?, /
O=C1CCCN1CCCN1C(=O)N[C@@H](Cc2ccccc2)C1=O
  -0.1%, i, 5.2e-08, -4%, i
Cc1cc(C)n2cc(CSc3nnnn3-c3ccccc3C)nc2n1
  0.5%, i, 1e-09, 6%, i
COc1ccc(N2CCN(C(CNS(=O)(=O)c3cc(F)ccc3F)c3cccnc3)CC2)cc1 (centres undefined)
  1.2%, i, 6.3e-09, -7%, i
Cc1ccc(N2C(=O)C(Cl)=C(NCCO)C2=O)c(C)c1
  3.1%, /, /, ?, /
CCOC(=O)N/N=C1/C[C@@H](O)[C@@H](O)[C@@H]2[C@@H]3C(=O)N(Cc4ccccc4)C(=O)[C@H]3CC[C@@H]12
  2.4%[11.5 µM], /, /, -4%[11.4 µM], /
O=C(c1ccccc1Cl)N1CCN(c2ccccn2)CC1
  0.3%, i, 2.7e-09, -8%, i
Cn1c(CNc2ccc(Cl)cc2)nnc1SCc1ccccc1
  -2.6%, i, 7e-08, 0%, i
C[N+](C)(C)/N=C\c1ccc(O)c(O)c1
  1.0%[11.5 µM], i, 1e-09, 2%[11.4 µM], i
Cc1cccc(CNc2cc(-c3ccccc3CN(C)C)ncn2)c1
  -1.7%, i, 2.9e-08, 28%, i
CCOc1ccc2nc(Nc3nc4c(c(=O)[nH]3)CCC4)nc(C)c2c1
  0.9%, /, /, -15%, /
N#CCc1nc(CSc2nc3ccccc3o2)cs1
  0.3%, i, 1.7e-08, 5%, i
O=C(CN1CCN(c2ccccc2F)CC1)c1ccc2cc[nH]c2c1
  5.4%, /, /, 2%, /
CC(C)CN(CC(C)C)S(=O)(=O)N1CCC(C(=O)NCCN2CCOCC2)CC1
  0.1%, i, 3.1e-09, 1%, i
O=C1N2c3ccccc3CCc3cccc(c32)C1(O)C(F)(F)F (centres undefined)
  -0.5%, i, 1e-08, ?, i
C/C=C/Cn1c(N(C)Cc2ccccc2)nc2c1c(=O)[nH]c(=O)n2C
  -1.7%, /, /, 10%, /
COc1ccc2[nH]cc(C(O)CN3CCN(c4ccccc4)CC3)c2c1 (centres undefined)
  0.1%, i, 6.1e-09, -5%, i
Cc1ccccc1-c1ccc2ncnc(N(C)Cc3ccco3)c2c1
  2.6%, i, 1e-09, ?, i
CCN=C(NCC)SC1CC(=O)N(c2ccccc2)C1=O (centres undefined)
  -1.9%, /, /, 0%, /
COCC(=O)Nc1nc2ccc(S(C)(=O)=O)cc2s1
  0.3%, i, 6.2e-09, -5%, i
O=C(c1ccc(=O)n(Cc2ccccc2)n1)N1CCN(C/C=C/c2ccccc2)CC1
  8.0%, i, 5e-09, ?, i
CCOC(=O)N1CCN(C(=O)C2CC(c3ccccc3OC)=NO2)CC1 (centres undefined)
  1.8%, i, 2.6e-09, -3%, i
Cc1cc(C)cc(N2CCN(C(=O)N3CCOCC3)CC2)c1
  1.0%, i, 4.2e-09, 5%, i
CC1CCCN(S(=O)(=O)c2ccc(NC(=O)c3cccc(-n4cnnn4)c3)cc2)C1 (centres undefined)
  0.1%, i, 1.4e-08, 8%, i
OCCN1CN=C(Nc2nc3ccccc3o2)NC1
  -1.4%, i, 4.1e-09, -10%, i
Oc1ccccc1-c1cc(C(F)(F)C(F)F)[nH]n1
  -1.9%, /, /, -16%[11.4 µM], /
COc1ccc(N2C(=NC(C)=O)SC3CS(=O)(=O)CC32)cc1OC (centres undefined)
  0.7%, i, 1.5e-08, -2%, i
O=S(=O)(NCCCO)c1ccc2c(c1)Cc1cc(S(=O)(=O)NCCCO)ccc1-2
  1.1%, i, 1e-09, 14%, i
O=C(O)CCC(NS(=O)(=O)c1ccc(N2CCCC2=O)cc1)C(=O)O (centres undefined)
  -1.2%, i, 9.3e-09, -1%, i
COc1ccc(S(=O)(=O)Nc2cc(Cl)ccc2OC)cc1
  -1.0%, /, /, -3%[11.4 µM], /
CC(=O)CCc1oc2ccc(NC(C)=O)cc2c1-c1ccc(C)o1
  5.1%, i, 2.5e-08, /, i
CCOC(=O)C1=C(C)N(c2ccccc2)C(=O)C1CC(=O)O (centres undefined)
  -2.8%, i, 6e-08, -2%, i
CC(C)c1nccn1S(=O)(=O)c1cc(Cl)ccc1Cl
  -0.3%, /, /, 6%, /
CCCOc1ccc(NC(N)=O)cc1OCCC
  0.5%, i, 4.5e-08, 0%, i
O=C(CN1CCN(c2ccc(F)cc2)CC1)Nc1ccc(-n2cnnn2)cc1
  -0.8%, i, 6.5e-09, -2%, i
C/C(=N\O)C1/C(=N/O)CC2C1C2(C)C (centres undefined)
  1.3%, i, 2.3e-08, -2%[11.4 µM], i
c1ccc(N2CCN(Cc3ccsc3)CC2)nc1
  2.2%, /, /, 5%[11.4 µM], /
CCSCCNC(=O)c1cncc(Br)c1
  -0.1%, i, 7.3e-08, 1%, i
COCCNC(=O)c1cc(-c2ccc(Cl)c(Cl)c2)on1
  -3.6%, /, /, -4%, /
CSc1nncn1/N=C/c1cc(Cl)ccc1F
  1.6%, i, 1.1e-08, 3%, i
COCCNC(=O)c1cc2sc3ccccc3c2s1
  1.8%, i, 2.8e-08, 8%, i
O=C(Nc1ccc2sccc2c1)c1ccc(Cl)s1
  -2.0%, /, /, 11%, /
c1cncc(-c2nn3c(Cn4nnc5ccccc54)nnc3s2)c1
  0.4%, i, 3.8e-08, 8%, i
Cc1ccnc(NC(=O)CCC(=O)N(CC(=O)NCC2CCCO2)Cc2ccc(F)cc2)c1 (centres undefined)
  0.8%, i, 4.4e-09, -1%, i
CCn1cc(S(=O)(=O)CC(=O)NC2CCCCC2)c2ccccc21
  0.9%, i, 2.1e-09, 1%, i
O=C(O)C1(c2cccc(Cl)c2)CCC1
  -1.0%, i, 3.6e-08, 4%, i
